S aureus helic: S. aureus DNA helicase inhibition | 0.05% of 120,000 active | purified S. aureus helicase, fluorescence unwinding assay; about half of the hits fall short of the stated cut | AID 485395 | inhibition, %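 (tested at about 80 µM)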;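 active means both duplicates at 50% or more, or one of them with a favoured structure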;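 further: 0% = mean of negative control wells and 100% = mean of positive control wells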
MgrA-DNA mod: modulators of Staphylococcus aureus MgrA DNA binding. fluorescence polarization. 0.13% of 84,000 active. inhibition, %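 (about 10 µg/mL by stock and volumes)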;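 active means above 50% in either of two replicates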;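 further: 0% = protein plus DNA without compound and 100% = DNA alone without protein; higher means less MgrA bound to DNA so lower polarization; one replicate is shown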
Starred values were filed as active, the others as inactive; i = inactive; nt = no result given. Not all compounds are listed. The share of hits here may be higher or lower than overall.

Start of the data: the first 2 entries, to show the layout:
SMILES	S aureus helic	MgrA-DNA mod
CCOC(=O)c1cnc2ccccn2c1=O	8	nt
CN(C(=O)Cn1c(SCc2ccccc2F)nc2ccncc21)C1CCCCC1	-3	nt

Results (from the top)
SMILES	S aureus helic	MgrA-DNA mod
CCOC(=O)c1cnc2ccccn2c1=O	8	nt
CN(C(=O)Cn1c(SCc2ccccc2F)nc2ccncc21)C1CCCCC1	-3	nt
COc1ccc2[nH]c3c(=O)n(CCCC(=O)NCc4ccco4)c(=S)[nH]c3c2c1	-20	nt
CCOc1ccc([C@H]2[C@@H]3CN(Cc4ccccc4)CC=C3C(C#N)=C(N)C2(C#N)C#N)cc1	12	-2.9
O=C(O)c1cccc(S(=O)(=O)Nc2ccccc2Cl)c1	3	-2.3
Cc1cccc(NC(=O)C2NC(=O)CC2c2ccccc2)c1C (stereo not drawn)	-20	nt
CCOC(=O)N1CCC(NS(=O)(=O)c2ccc(C)cc2)CC1	-1	nt
COC(=O)c1sccc1N1C(=O)Nc2ccccc2N1O	8	-3.9
Cc1nnc(N2CCN(c3ccccc3)CC2)c2c1nnn2Cc1ccccc1	11	nt
O=C(NCC(=O)N1CCN(S(=O)(=O)c2ccc3c(c2)OCCCO3)CC1)c1ccccc1	-3	nt
CC1C2CC(C(S(=O)(=O)N3CCOCC3)C2=O)C1(C)C (stereo not drawn)	-17	0.1
CCOc1ccc(NC(=O)CCS(=O)(=O)c2ccc3c(c2)CCCN3C(=O)CC)cc1	10	nt
O=C(CSc1ncnc2ccccc12)NCCC1=CCCCC1	-4	nt
COc1ccc(N=Cc2ccccc2Br)cn1	-9	4.6
CC1(C)C2CCC1(C)C(OCC[N+]1(C)CCOCC1)C2 (stereo not drawn)	3	-0.4
CCOC(=O)Cn1c2c(sc1=O)C(c1ccc(Cl)cc1)C1C3CCC(C3)C1S2 (stereo not drawn)	5	0.2
COC(=O)C1=C(C)N(Cc2ccccc2)C(=O)NC1c1ccccc1F (stereo not drawn)	2	0.6
C=CCNC(=O)c1ccc2nc(-c3ccco3)c(-c3ccco3)nc2c1	-4	59*
N#C/C(=C(\O)c1ccco1)c1nc2ccccc2[nH]1	-9	3.8
CCC12CN3CC(CC)(CN(C1)C3c1ccc(C(C)C)cc1)C2=O (stereo not drawn)	5	2.0

Given with values under each structure: part of the list above.
Values run as follows: S aureus helic, MgrA-DNA mod
CN(C(=O)Cn1c(SCc2ccccc2F)nc2ccncc21)C1CCCCC1
→ -3, nt
COc1ccc2[nH]c3c(=O)n(CCCC(=O)NCc4ccco4)c(=S)[nH]c3c2c1
→ -20, nt
CCOc1ccc([C@H]2[C@@H]3CN(Cc4ccccc4)CC=C3C(C#N)=C(N)C2(C#N)C#N)cc1
→ 12, -2.9
O=C(O)c1cccc(S(=O)(=O)Nc2ccccc2Cl)c1
→ 3, -2.3
Cc1cccc(NC(=O)C2NC(=O)CC2c2ccccc2)c1C (stereo not drawn)
→ -20, nt

Following part.
SMILES	S aureus helic	MgrA-DNA mod
COc1ccc(-c2cc(C(F)(F)F)n3nc(C(=O)N4CCN(C)CC4)c(Cl)c3n2)cc1OC	nt	2.2
O=C(CN(CC1CCCO1)S(=O)(=O)c1ccc(S(=O)(=O)N2CCOCC2)cc1)Nc1ccccc1 (stereo not drawn)	18	-1.6
CN(C)/C=N/c1nnc(Sc2nc3cc(Cl)ccc3s2)s1	nt	0.6
Cc1nc2ccc(S(=O)(=O)NC(C(=O)N3CCn4c3nc3ccccc34)C(C)C)cc2s1 (stereo not drawn)	5	-1.0
CC1(C)CC(NC(=O)NC(=O)c2c(F)cccc2F)CC(C)(C)N1	4	4.0
Cc1cc(C)c2c3c(oc2n1)C(=O)N(c1cccc(C(F)(F)F)c1)CC(=O)N3	10	nt
Cc1[nH]n2c(=O)c3c(nc2c1-c1ccccc1)CCC3	9	3.4
CCCCCCCCCCCCCCCCCCOC[C@H](COP(=O)([O-])OCC[N+](C)(C)C)OC(C)=O	nt	-0.4
CCC(=O)Nc1cc(C(F)(F)F)cc(C(F)(F)F)c1	nt	-2.8
C=C(C)Cn1c(CNC(=O)c2cccs2)nc2ccccc21	-24	nt
COc1ccc(S(=O)(=O)Nc2ccc(S(=O)(=O)N3CCCC3)cc2)cc1Cl	8	-1.4
CCOC(=O)CSc1nnc(CNc2ccc(F)cc2)o1	2	0.1
NC(=O)c1cc2cc(Br)ccc2oc1=Nc1ccc(C(F)(F)F)cc1	nt	-0.8
COC(=O)c1cnc(Oc2c(Cl)cc(N)cc2Cl)cc1C(F)(F)F	nt	1.4
Cc1c(C)n(Cc2ccc(F)cc2)c2ccc(C(=O)N3CCN(c4ncccn4)CC3)cc12	3	nt
CC(=O)N(C)c1ccccc1C(=O)O	6	-4.4
COc1ccc(-c2cc(C(F)(F)F)n3nc(C(=O)NCCCN4CCOCC4)c(Cl)c3n2)cc1OC	nt	-0.1
C=CC(C)n1c(=O)c2c(nc3n2CCN3c2ccc(Cl)cc2)n(C)c1=O (stereo not drawn)	3	nt
CC(C)(C)OC(=O)N1CCN(S(=O)(=O)c2ccc(N3C(=O)CC4(CCCC4)C3=O)c(Cl)c2)CC1	-35	nt
c1ccc(-c2nc(-c3ccccc3)c(-c3ccccc3)o2)cc1	nt	0.3
CC(=O)Oc1cc2sc(=O)oc2c2ccccc12	nt	1.9
O=C(c1csc(Nc2ccccc2Cl)n1)N1CCCC1	-19	3.6
Cc1cc(C)c2nc(/N=C(\N)NC(=O)C(C)(C)C)nc(C)c2c1	22	nt
Cc1ccsc1C(=O)OCc1nc2sc3c(c2c(=O)[nH]1)CCCC3	11	nt
O=C1CC(Nc2ccc(N3CCOCC3)cc2)C(=O)N1 (stereo not drawn)	-5	nt
O=C(Nc1ccccc1)c1nc[nH]c1C(=O)Nc1ccccc1	19	nt
Cc1cc(C)nc(SC2=C(N3CCC(C)CC3)C(=O)N(Cc3ccccc3)C2=O)n1	5	nt
Cc1ccc2nc(NC(=O)Nc3ccccc3)sc2c1	4	nt
CC(C)CNCC1COC2(CCCCC2)O1 (stereo not drawn)	-14	nt
O=C(N/C(C(=O)N1CCOCC1)=C(\Sc1ccccn1)c1ccccc1)c1ccccc1	-8	2.8
CCCc1cnc(N2CCCN(C(=S)Nc3ccc(C)cc3)CC2)nc1	nt	-2.0
O=C(CCN1N=C(c2ccccc2)CCC1=O)NC1CCCC1	14	5.0
Cc1nnsc1C(=O)NC(=O)Nc1cc(Cl)cc(Cl)c1	nt	2.4
Cc1nc2ccccc2c(=O)n1NC(=O)c1c(O)c2c(n(CC(C)C)c1=O)CCCC2	10	nt
Cc1[nH]c2ccccc2c1C(=O)Cn1nnc(-c2cccc(C(F)(F)F)c2)n1	2	-2.0
CCCC1=C(C(=O)OCC)C(c2cc(Br)c(O)c(OC)c2)NC(=O)N1 (stereo not drawn)	-3	-2.9
Cc1ccccc1-n1c(SCc2cccc(C#N)c2)nnc1-c1cc2occc2n1C	22	nt
COc1ccc(S(=O)(=O)N2CCc3ccccc32)cc1C(=O)N1CCC(C)CC1	15	nt
COc1ccnc2cc(Cl)ccc12	9	-0.5
NC(=O)Nn1c(CCC(=O)O)ccc1-c1ccc(Cl)cc1	10	18
O=C(O)c1ccc(N2CCCC2=O)cc1	-1	-3.7
CCCc1cc(=O)[nH]c(N/N=C/C=C\c2ccccc2)n1	9	2.0
O=S(=O)(c1cccs1)N1CCN(c2ccccc2Cl)CC1	15	-2.2
CCOc1ccc(CNC(=O)Cn2ncc3c(=O)oc4ccccc4c32)cc1	4	nt
COc1ccc(N=C2c3ccccc3-c3nc4ccccc4nc32)cc1	8	-5.7
CSc1ccccc1NC(=S)Nc1cccnc1	9	3.0
COC(=O)Nc1ncc(CN2CCC(C)CC2)s1	11	-4.5
CC(C)C(C#N)N1CCNCC1 (stereo not drawn)	4	nt
CC1=[N+](C)c2cc(C(F)(F)F)ccc2C1(C)C	nt	-0.4
O=C1/C(=C/N(C(=O)c2cccc(Cl)c2)c2ccc(Cl)cc2)Sc2ccccc21	nt	-3.0

Next section; it opens with the 5 that closed the last part.
SMILES	S aureus helic	MgrA-DNA mod
CSc1ccccc1NC(=S)Nc1cccnc1	9	3.0
COC(=O)Nc1ncc(CN2CCC(C)CC2)s1	11	-4.5
CC(C)C(C#N)N1CCNCC1 (stereo not drawn)	4	nt
CC1=[N+](C)c2cc(C(F)(F)F)ccc2C1(C)C	nt	-0.4
O=C1/C(=C/N(C(=O)c2cccc(Cl)c2)c2ccc(Cl)cc2)Sc2ccccc21	nt	-3.0
N#CCN1CCC(c2cc(-c3ccc(Cl)cc3Cl)n[nH]2)CC1	nt	-2.5
CC(C)Oc1ccc(-c2[nH]ncc2-c2ccc(F)cc2)c(O)c1	0	nt
CCCc1ccccc1OCCNC(=O)c1cc(=O)n(C)c(=O)n1C	4	-0.3
OCCNC(=S)Nc1ccc(Oc2ccccc2)cc1	7	2.5
Cc1oc(N)c(S(=O)(=O)/C(C#N)=C/c2cc(Cl)cc(Cl)c2)c1C	nt	-0.2
CCc1nn(C(C)C(=O)N(C)Cc2ccccc2)c(=O)c2cc3occc3n12 (stereo not drawn)	15	-2.1
O=C(NC1CCCC1)C(Cc1ccccc1)n1cccc1 (stereo not drawn)	14	1.1
CCNC(=O)N(Cc1ccccc1)Cc1cccnc1	nt	-1.3
O=C1c2ccccc2S(=O)(=O)N1C(=O)c1cc(F)c(F)c(F)c1F	-12	-3.2
CCN(CC)CC(=O)N1c2ccccc2NC(=O)CC1C (stereo not drawn)	23	nt
CC(C)c1ccccc1NC(=O)COC(=O)c1ccc(N)cc1	-15	0.2
Cn1nccc1-c1ccc(Oc2cccc(Cl)c2C#N)cc1	nt	-0.8
Cc1cc(C)c2[nH]c(C)c(CN(C)C3CCCCC3)c(=O)c2c1	3	-2.1
CCOc1ccc(NC(N)=O)cc1	nt	-2.4
COc1ccccc1CN=C(C)c1ccccc1O	-25	nt
COc1ccc(NC(=O)Cn2c(=O)n(-c3ccccc3)c(=O)c3c4c(sc32)CCCC4)cc1OC	10	-2.4
O=C(COC(=O)C1CCN(C(=O)c2ccc(Cl)cc2)CC1)NCc1ccco1	-10	nt
CCc1ccccc1NC(=O)C1CCN(S(=O)(=O)c2c(C)noc2/C=C/c2ccco2)CC1	-36	nt
COc1cc(CNC(=O)Cn2c(=O)c3cccn3c3ccc(F)cc32)cc(OC)c1OC	-1	nt
COc1ccc(/C=C2\N=C(SCC(=O)NCc3ccco3)N(c3cc(C)cc(C)c3)C2=O)cc1	-7	nt
Cc1ccc(C)c(N2C(=O)CC3CS(=O)(=O)CC32)c1 (stereo not drawn)	17	0.8
N#CCNC(=O)Cc1ccccc1	21	3.3
O=C(O)Cc1n[nH]c(=S)n1Cc1ccccc1	24	nt
Cc1ccccc1-c1noc2ncnc(NCCCO)c12	-13	nt
S=C(N/N=C\c1ccn[nH]1)Nc1ccc(Cl)cc1	-34	nt
CCOC(=O)c1sc(NC(=S)Nc2ccc(N3CCOCC3)c3nonc23)c(C(=O)OCC)c1C	10	4.8
O=C(CC1Sc2ccc(C(F)(F)F)cc2NC1=O)NC1CCCCC1 (stereo not drawn)	-8	nt
CCCn1nnnc1NCc1cc(Cl)c(OCc2cccs2)c(OC)c1	6	-2.4
Cc1cc(NC(=O)c2ccc(S(=O)(=O)N3CCCC3)cc2)nc2c1c(=O)oc1ccccc12	4	nt
O=C(O)COc1ccc(-c2nnco2)cc1	3	nt
Cc1ccc(CC(C#N)Sc2nnc(Cc3ccccc3)o2)cc1 (stereo not drawn)	4	nt
CSc1ccc(NC(=O)C2CC(O)CN2C(=O)Nc2ccccc2)cc1 (stereo not drawn)	6	3.2
O=C(Cn1c2c(c(-c3ccccc3)cc1=O)CCCC2)N1CCCC1	4	-4.6
Cc1ccc(C(=O)NC2CC(C)(C)NC(C)(C)C2)cc1	8	-1.2
CN(C)c1oc(-c2ccccc2)nc1C#N	4	nt
CCN(CC)c1ccc(C2NC(=O)NC(c3cc(C)n(-c4cc(C(=O)OC)cc(C(=O)OC)c4)c3C)=C2C#N)cc1 (stereo not drawn)	i	nt
O=C(CSc1nccc(-c2cccs2)n1)Nc1cccc(Cl)c1	nt	-0.9
CC(=O)Nc1cccc(NC(C)=C(C#N)C#N)c1	-6	nt
CCOc1ccc(C(=O)OCCC2CCCN3CCCCC23)cc1 (stereo not drawn)	-11	0.9
COc1ccc(OCC(F)(F)F)c(C(=O)Nc2cccnc2)c1	nt	-1.3
Cc1ccc(-c2noc(CCC(=O)N(C)c3ccccc3)n2)cc1	9	nt
CCN1CCN(Cc2ccc(NC(=O)CN3C(=O)CSc4ncccc43)cc2)CC1	-3	nt
CSc1ccc(-c2nc3ncccn3c2Nc2ccccc2)cc1	8	0.0
CCN(CC)c1ccc(C(=O)N2CCCCC2C)cc1 (stereo not drawn)	1	nt
CC(CNC(=O)CCc1nnc2ccc(N3CCCC3)nn12)c1ccccc1 (stereo not drawn)	-29	nt
CCC(C)Cn1c(CO)nc2ccccc21 (stereo not drawn)	9	nt
O=C(c1ccc2c(c1)OCCO2)c1ccccc1Cl	1	-1.1
OCCN1CCN(C2=Cc3ccccc3C2)CC1	nt	-0.7
Cc1nc2ccccn2c1-c1ccnc(SCC(=O)Nc2ccccc2)n1	nt	-1.6
C[N+]12CCCCC1C(COc1ccccc1Br)CCC2 (stereo not drawn)	-2	4.5

(next part)
SMILES	S aureus helic	MgrA-DNA mod
CCC(=O)Nc1cccc(C)c1	0	-0.3
CC(=O)N(c1ccccc1)C1(C(=O)NC2CCCC2)CCCCC1	-12	2.8
O=C(O)CCC(=O)Nc1cccc(-c2nn(-c3ccccc3)cc2C(=O)O)c1	-2	nt
COc1cc2nc(SCc3ccc(C#N)cc3)n3nc(CCn4c(C)nc5ccccc54)nc3c2cc1OC	9	nt
COc1cccc(OCC(=O)Nc2cccc(C#N)c2)c1	6	nt
COc1ccc(N(C)S(=O)(=O)c2cccc(C(=O)Nc3ccc(N4CCN(C)CC4)cc3C)c2)cc1	2	nt
COC(=O)c1c(COC(=O)c2ccc(Br)o2)nc2ccccc2c1C	8	nt
